PINK1 expr mod – modulators of PINK1 expression; PINK1 immunofluorescence, high-content cytometry, 24 h; Potency, µM (highest dose often 76.6 µM), for inactives: at the top dose activation (PINK1 increase), actives largely listed as activators; 410,000 compounds, 0.2% hits; active = well fitted activation curve with a large enough effect; inconclusive = small, poorly fitted or top-dose-only effect; inactive = flat fitted curve, though single readings scatter; cell line not stated here;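 further: potency means the concentration at half of the fitted maximal effect; % of control where 0% means no effect; nearly all actives have a fitted effect of over 65% in size; a mitochondrial uncoupler was the plate control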
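Compound titrations (5 concentrations, 24 h) on a stable cell line; DMSO and CCCP controls. Endpoint: fixed-cell PINK1 immunofluorescence with mitochondrial, cell and nuclear markers, scanned by microplate cytometer.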
TRPML1 inh – inhibitors of human TRPML1 channel | activity change, negative = inhibition, % (concentration not given with the values) | Q9GZU1 | TRPML1-inducible cells, Ca2+ dye fluorescence, FDSS; hits give low values; inhibition of EC80 agonist-evoked calcium signal | 390,000 compounds, 0.02% hits; in the data active means activity change below about -50%; inconclusive means about -30% to -50%; inactive means above about -30%;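 further: stimulus is agonist 54-4 at its EC80 concentration; on the % scale 0 is the no-effect control and ±100 the full control effect; the text of the record puts the active cut at -80%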
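Calcium fluorescence in TRPML1-DL cells induced overnight with Tet: a 110 s read after compound pin addition, then a 110 s antagonist read after challenge with 54-4 at 4 uM final (EC80).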
TRPML1 ag – activates the human TRPML1 channel. TRPML1-expressing cells, Ca2+ dye fluorescence, FDSS; host cell line not named in the record; reference of the full effect not given here. AID 624414. Q9GZU1. activation, % (test concentration not listed). 410,000 compounds, 0.12% hits; in the data active = activation above about 50%; inconclusive = about 30% to 50%; inactive = below about 30%; further: 0% is about no effect; the text of the record puts the active cut at 80%
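Cells: TRPML1-DL, 1X Tet inducer, ~16 h at 37 degrees C/5% CO2. Dye: ABD Ca8 no-wash + quencher, 45-90 min RT. Read: 10 s baseline, compound add, 110 s agonist phase; 54-4 EC80 (4uM final), 110 s antagonist phase.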
Menin MLL FP FL – displaces fluorescein MLL peptide from human menin | FP activity change, % at 61.4 µM | 290,000 tested, under 10 active | Fluorescence polarization, fluorescein-MLL peptide displacement from menin; inconclusive = falling polarisation curve, or a change in total fluorescence; inactive = total fluorescence flat and polarisation flat or rising; no compound was filed as active; the % refers to the polarisation; negative = inhibition;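 further: % of control where 0% means no effect; inhibitors lower the polarisation; unlabelled MLL peptide was the positive control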
ClpP mod – qHTS Assay for Activators of ClpP; ATP-dependent Clp protease proteolytic subunit (Bacillus subtilis (strain 168)), P80244; purified B. subtilis ClpP, FRET peptide cleavage, 20 min; Potency, µM (highest dose often 57.5 µM), inactives show at the highest dose activity change, negative = active; 340,000 compounds, 1.9% hits; active = well fitted falling curve with a large enough effect; inconclusive = small, poorly fitted or top-dose-only effect; inactive = no such curve, though single readings can be large or run the other way; further: potency means the concentration at half of the fitted maximal effect; the source files actives as falling curves though it sought activators and does not explain the sign; nearly all actives have a fitted effect of over 65% in size; many hits overshoot -100%
Target sequence (P80244 whole entry, looked up): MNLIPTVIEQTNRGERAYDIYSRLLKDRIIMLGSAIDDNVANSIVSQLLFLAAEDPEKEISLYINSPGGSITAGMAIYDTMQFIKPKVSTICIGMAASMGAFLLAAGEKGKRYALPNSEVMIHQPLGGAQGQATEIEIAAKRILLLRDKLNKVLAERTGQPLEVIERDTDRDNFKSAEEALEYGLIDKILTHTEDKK
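FRET quenching reversal measured ClpP activation: 10 microg/mL B. subtilis ClpP at pH 8 with the FRET-FV decapeptide, read at 430 nm after 320 nm excitation. The 20-min minus 0-min signal was scaled between DMSO/no-enzyme wells and ADEP (5.8 microM final).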
Sfp inh – Sfp phosphopantetheinyl transferase inhibition | Biochemical Sfp PPTase activity, qHTS | AID 1490 | 310,000 compounds, 3.5% hits | Q9F4F7 | Potency, µM, for inactives: max response, negative = inhibition, most hits filed as inhibitors; active means well fitted inhibition curve with a large enough effect; inconclusive means small, poorly fitted or top-dose-only effect, or another doubt; inactive means no such curve, though single readings can be large or run the other way;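 further: the enzyme is Sfp with the accession as filed and its product quenches rhodamine fluorescence; potency means the concentration at half of the fitted maximal effect; 0% = enzyme reaction without inhibitor and -100% = no enzyme wells; top concentration of the series not given in the record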
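Sfp 15 nM + cpd, 15 min RT; start w/ rhodamine-CoA 5 uM, BHQ-2-YbbR 12.5 uM (final); 50 mM Hepes pH 7.6, 10 mM MgCl2, 0.01% NP-40, 0.01% BSA; read 525/598 nm at 0 and 30 min.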
TRPV1 potentiator – human TRPV1 potentiation; potentiation, % at 8.33 µM; TRPV1-expressing cells, Fluo-8 calcium influx, capsaicin EC20 potentiation; host cell line not named in the record; control for the full effect not named in the record; 320,000 compounds, 0.02% hits; AID 540277; active means potentiation above 80%; inconclusive means 30% to 80%; inactive means below 30%; further: 0% is about no effect
Target sequence (Q8NER1 whole entry, looked up): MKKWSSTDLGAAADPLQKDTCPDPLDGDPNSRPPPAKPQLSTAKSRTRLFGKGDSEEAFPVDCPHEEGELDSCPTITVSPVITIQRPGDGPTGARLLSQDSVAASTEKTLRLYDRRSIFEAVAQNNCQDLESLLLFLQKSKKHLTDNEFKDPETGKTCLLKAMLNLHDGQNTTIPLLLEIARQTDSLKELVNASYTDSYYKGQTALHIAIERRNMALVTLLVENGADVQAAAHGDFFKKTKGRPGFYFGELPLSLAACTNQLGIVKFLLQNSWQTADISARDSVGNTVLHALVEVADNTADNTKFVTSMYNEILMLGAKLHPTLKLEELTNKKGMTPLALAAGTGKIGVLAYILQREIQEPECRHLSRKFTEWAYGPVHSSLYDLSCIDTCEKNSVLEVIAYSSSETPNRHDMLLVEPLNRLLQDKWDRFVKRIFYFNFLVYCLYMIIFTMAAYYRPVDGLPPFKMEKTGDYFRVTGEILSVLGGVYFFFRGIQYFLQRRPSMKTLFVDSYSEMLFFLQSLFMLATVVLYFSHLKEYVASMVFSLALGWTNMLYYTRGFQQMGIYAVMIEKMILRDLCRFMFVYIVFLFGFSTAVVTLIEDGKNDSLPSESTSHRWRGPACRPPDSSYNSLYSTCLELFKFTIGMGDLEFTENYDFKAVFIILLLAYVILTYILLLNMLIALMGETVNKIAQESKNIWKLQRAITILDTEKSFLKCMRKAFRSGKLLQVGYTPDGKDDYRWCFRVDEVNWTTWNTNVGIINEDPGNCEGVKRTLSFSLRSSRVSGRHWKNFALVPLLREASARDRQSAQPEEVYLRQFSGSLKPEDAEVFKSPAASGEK
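Fluo-8 calcium influx in TRPV1-expressing cells, kinetic read (ex 480/em 520 nm). Compound added and read 3 min for agonist activity, followed by capsaicin at EC20 final and 2 min further read for enhancement.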
* hit, by the source's call; ? = inconclusive; nt = not tested or not shown; [ ] = another dose, or the depositor's remark.

SMILES	PINK1 expr mod	TRPML1 inh	TRPML1 ag	Menin MLL FP FL	ClpP mod	Sfp inh	TRPV1 potentiator
Cc1ccc(NS(=O)(=O)c2cc3[nH]c(=O)c(=O)[nH]c3cc2C)c(C)c1	0.4%	4.5	-0.4	-2.1	?	4.5%	-2.5
CCCCN(C)S(=O)(=O)c1cc2c(cc1Br)CCN2C(=O)C1CC1	6.0%	-9.3	0.4	nt	nt	nt	nt
CCN(CC(=O)NCc1cccs1)C(=O)CCCOc1ccc(C(C)(C)C)cc1	-0.6%	20.5	2.7	nt	-3.6%	nt	-6.9
CCOC(=O)C(Cc1ccccc1)NC(=O)CNC(=O)CNC(=O)OCc1ccccc1 (stereo not given)	5.2%	-10.3	-1.5	0.0	1.2%	13.7%	6.7
CCN1CCN(C(=O)Cn2ncc3c2-c2ccccc2OC3)CC1	2.4%	-3.2	-0.4	-0.7	-2.2%	16.3%	nt
O=C(O)Cc1ccc(NC(=O)COc2ccc3ccccc3c2)cc1	-1.9%	-3.8	0.7	nt	-3.7%	6.4%	-0.7
CCC1(C)Cc2c(C#N)c(SC)nc(N3CCOCC3)c2CO1 (stereo not given)	1.2%	0.7	4.0	nt	-0.7%	nt	nt
Cc1cc(C(C)(C)C)oc1C(=O)NCCCNC(=O)c1oc(C(C)(C)C)cc1C	-1.2%	8.1	-0.3	0.1	0.2%	-2.1%	-32.6
Cc1cc(C)n2nc(SCC(=O)N(CCC#N)c3ccccc3F)nc2n1	3.0%	-13.9	-0.6	nt	-4.3%	nt	?
COc1c(F)c(F)c(C(=O)Nc2ccc(N3CCN(C(C)=O)CC3)c(Cl)c2)c(F)c1F	6.5%[38.3 µM]	37.5	-0.6	2.3	-2.4%	0.6%	-6.0
CCN1C(=O)C(=O)N(Cc2ccc(OC)c(F)c2)C1=O	-1.3%	13.7	0.6	7.6	nt	1.7%	2.5
O=C1C2C(c3ccccc3)C=CC(c3ccccc3)C2C(=O)N1CCCO (stereo not given)	2.4%	6.3	0.0	-0.4	-5.7%	-0.6%	-6.1
Cn1c(=O)c2cc(NC(=O)Cc3cccnc3)ccc2n1-c1ccc2ccccc2c1	4.6%	nt	-1.0	nt	4.8%	nt	nt
Cc1csc(Nc2cccc3ccccc23)n1	2.8%	-20.8	1.0	0.5	nt	1.4%	4.0
COCCCN1C(=O)C(CC(=O)NCCc2ccccn2)CC(C(=O)N2CCCCCC2)=C1C (stereo not given)	0.4%	nt	-0.3	nt	-0.4%	nt	nt
Cn1c(=O)c(=O)n(C)c2cc(S(=O)(=O)N3CCCC3C(=O)NCc3ccco3)ccc21 (stereo not given)	-0.7%	-4.0	-0.3	2.0	-20.4%	14.9%	-5.2
C=C(C)c1cccc(C(C)(C)NC(=O)N2CCN(c3ncccn3)CC2)c1	1.8%	33.9	-0.6	nt	-0.2%	nt	nt
Cc1nn(CC(=O)Nc2ccc3c(c2)OCCO3)c(C)c1[N+](=O)[O-]	1.7%	13.4	-0.2	nt	1.0%	nt	nt
CC(C)N(CCn1c(=S)[nH]c2ccccc2c1=O)C(C)C	0.5%	-11.3	3.3	-0.2	-1.7%	11.2%	?
CSc1nc(N2CCOCC2)c2sccc2n1	0.1%	-18.9	1.1	-0.5	-2.4%	-20.2%	-7.1
O=C(COC(=O)c1ccc(S(=O)(=O)N2CCCCC2)cc1)NCc1ccco1	-0.3%	3.4	-0.7	0.7	nt	3.1%	2.0
CN(C)CCC(=O)c1ccc(Cl)cc1	3.0%	2.2	0.0	?	-0.5%	-3.5%	-2.8
Cc1ccc2c(c1)/C(=N/N1C(=O)c3ccccc3C1=O)C(=O)N2	0.2%	-1.5	1.5	nt	-0.2%	2.0%	-24.5
Cc1ccccc1-c1nnc(SCC(=O)N2CCCC2)o1	?	2.2	-0.4	-2.0	nt	12.7%	-9.2
Cc1c(-c2ccccc2)c(=O)oc2ccc(OC(=O)N3CCOCC3)cc12	0.8%	13.6	2.0	nt	?	nt	nt
CC(=O)Nc1ccc(N=Nc2ccccc2)cc1[N+](=O)[O-]	4.0%	9.9	0.9	nt	0.5%	nt	nt
Cc1ccc(-c2nc3cccnc3s2)cc1NS(=O)(=O)c1ccc2c(c1)CCCC2	-0.1%	21.5	1.2	5.8	?	15.7%	-9.6
CCOC(=O)c1c(CC(C)C)csc1/N=C/C1C(=O)CCCC1=O	?	19.7	5.3	?	nt	?	-5.6
Cc1ccc(S(=O)(=O)Cc2nc(-c3ccc(C(=O)NCc4ccccc4F)cc3)oc2C)cc1	5.5%	-24.1	1.7	nt	nt	nt	21.7
Cc1ccc(C)c(NC(=S)NCc2ccc3c(c2)OCO3)c1	-1.7%	-7.3	0.6	-0.3	-1.7%	-4.9%	-15.4
Cc1ccc(CNC(=O)C2CCC(CNS(=O)(=O)c3ccc(C)cc3)CC2)cc1 (stereo not given)	0.7%	-3.4	0.2	nt	-0.8%	nt	nt
O=C(Cn1c(=O)cnc2ccccc21)Nc1cccc(S(=O)(=O)N2CCOCC2)c1	0.7%	1.3	0.0	nt	-27.9%	nt	0.2
Cc1ccc(S(=O)(=O)Nc2cc(=O)[nH]c3c2CCC3)cc1	1.5%	1.4	0.9	0.1	nt	4.4%	-5.7
COc1ccc(O)c(C(=O)C2c3ccccc3C(=O)N2c2ccc(C)cc2)c1 (stereo not given)	0.9%	21.6	1.6	?	nt	22.4µM*	-9.0
Cc1cc(NC(=O)COc2ccccc2C)no1	-0.1%	0.6	0.0	0.8	0.6%	-2.6%	1.4
Cc1nnc(NC(=O)c2ccc(S(=O)(=O)N3CCCCCC3)cc2)o1	-0.5%	2.4	-0.1	1.7	1.3%	23.8%	-8.4
CCCCC1=CC2=C(c3ccco3)C(=O)C(C)(OC(=O)c3ccc(OC)cc3)C(=O)C2=CN1Cc1ccc2c(c1)OCO2 (stereo not given)	-0.2%	-1.0	-0.4	?	1.3%	?	-11.4
COc1ccc(-c2cc([C@H]3[C@H]4C=CC[C@@H](C)[C@@H]4C(=O)N3Cc3ccccc3)ccc2F)cc1	8.5%	72.2	0.7	5.3	?	-6.1%	-12.9
COc1ccc(Br)cc1CNC(=O)CCc1cn(Cc2ccc(C)cc2)c2ccccc12	1.1%	55.0	2.4	nt	-16.3%	nt	nt
Cc1noc(C)c1C(=O)N1CCC2(CC1)Oc1ccc(F)cc1C(=O)C21CC(c2ccc(Cl)cc2)=NO1 (stereo not given)	-0.7%	-4.2	0.8	2.2	-4.8%	6.5%	?
O=C(COc1ccc(C(=O)c2ccccc2)cc1)NC1CCCCCC1	4.7%	7.1	1.8	3.9	-2.9%	8.2%	-4.2
Cc1c(/C=N/N2C(=O)C3C4C=CC(C4)C3C2=O)c2ccccc2n1C (stereo not given)	7.4%	-0.2	-1.0	4.7	1.5%	7.0%	?
COc1ccc(Oc2nc(SC)nc3ccsc23)cc1	5.2%	3.9	0.3	0.5	0.5%	-12.1%	nt
CN(Cc1ccc(C(F)(F)F)cc1)C(=O)C1CCC(=O)N(C2CC2)C1 (stereo not given)	1.4%	20.9	0.9	nt	?	3.8%	6.1
Cc1ccc(CSc2nnc(Nc3ccc(C)cc3)s2)cc1	7.6%	1.9	0.7	1.7	0.4%	5.7%	4.3
CCOC(=O)C1=C(C)N=C2SC(C(=O)OC)=CC(=O)N2C1c1ccc(OC)cc1 (stereo not given)	1.0%	3.2	0.3	7.1	nt	-3.1%	3.5
c1ccc(Sc2cccc3ccccc23)c(CNC2=NCCN2)c1	-5.7%	25.0	0.1	-1.4	3.16µM*	-20.1%	5.3
CSc1ncc(CN2CCN(C3CCCC3)C(CCO)C2)cn1 (stereo not given)	-0.5%	?	2.0	-3.5	-1.0%	-3.1%	5.3
CCOC(=O)/C(=C/c1ccc(OC(=O)c2ccccc2)cc1)C(C)=O	-3.1%	-19.1	-0.7	-1.5	0.9%	?	-0.1
O=C(Nc1ccc2c(c1)OCCO2)C1CCCN(S(=O)(=O)c2cccs2)C1 (stereo not given)	0.4%	5.7	-0.6	6.8	1.2%	-3.3%	7.6
COC(=O)c1ccc(/C=N/NS(=O)(=O)c2cc(C)ccc2C)cc1	11.7%	2.3	-0.8	1.0	1.0%	8.9%	9.5
CC(C)CN1C(=O)c2ccc(C(=O)Nc3c[nH]c(=O)[nH]c3=O)cc2C1=O	0.1%	6.7	0.1	0.5	nt	26.2%	8.9
Cc1nc(N/C(N)=N/S(=O)(=O)c2ccccc2)nc2ccccc12	-1.2%	10.9	1.0	nt	nt	nt	nt
CC(C)(C)C1CCC(CN2C(Nc3ccccc3)=NC[C@@H]2Cc2ccccc2)CC1 (stereo not given in full)	-1.9%	-0.5	0.8	nt	2.0%	nt	nt
CCOc1nc(OCC)nc(-n2cc(-c3ccccc3)nn2)n1	-1.5%	-5.2	-0.3	2.5	-6.5%	16.6%	10.8
CC1=C(c2ccc(C(C)C)cc2)S(=O)(=O)NC1=NCCCN1CCN(c2ccccc2F)CC1	1.6%	-19.0	-0.1	nt	0.1%	nt	nt
COc1ccccc1S(=O)(=O)Nc1ccc(-c2nnc3n2CCCCC3)cc1	2.9%	9.4	-0.8	1.8	-4.0%	-4.9%	5.3
Cc1ccc(-c2nc(SC(C)C(=O)c3c(N)n(C)c(=O)n(C)c3=O)n[nH]2)cc1 (stereo not given)	-1.0%	13.3	1.3	nt	-17.9%	nt	-1.1
COc1ccc(NC(=O)NC2CCCCCCC2)cc1	-1.2%	26.7	0.7	0.8	-1.5%	7.6%	-2.9
COc1ccc(-n2c(=O)cc(N3CCN(Cc4ccccc4)CC3)[nH]c2=O)cc1	1.2%	6.7	-0.7	-1.0	2.3%	-7.0%	-2.2
O=C(CSc1nc2ccccc2n1Cc1ccccc1)NCc1ccccc1	1.3%	57.7	-0.1	nt	2.1%	nt	nt
Cc1ccc(-n2ncc3c(NC4CCCCCC4)ncnc32)cc1	3.0%	67.4	1.0	nt	?	nt	nt

Compound profiles, as listed above. Values in the order: PINK1 expr mod | TRPML1 inh | TRPML1 ag | Menin MLL FP FL | ClpP mod | Sfp inh | TRPV1 potentiator
Listed for Cc1ccc(CSc2nnc(Nc3ccc(C)cc3)s2)cc1 = 7.6% | 1.9 | 0.7 | 1.7 | 0.4% | 5.7% | 4.3
Listed for Cc1c(/C=N/N2C(=O)C3C4C=CC(C4)C3C2=O)c2ccccc2n1C (stereo not given) = 7.4% | -0.2 | -1.0 | 4.7 | 1.5% | 7.0% | ?
